Compound activity (PubChem BioAssay)
gsp agonist: agonists of gsp mutant (McCune-Albright syndrome); Potency, µM (highest dose often 76.9 µM), without a hit: at the highest dose activation (cAMP increase), most hits filed as activators; AID 624287; gsp mutant cells, cAMP HTRF, 30 min; control for the full effect not named in the record; 0.13% of 340,000 active; active = well fitted activation curve with a large enough effect; inconclusive = small, poorly fitted or top-dose-only effect, or another doubt; inactive = no such curve, though single readings can be large or run the other way; cell line not stated here;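 also: phosphodiesterase inhibitor Ro 20-1724 added with compounds to block cAMP breakdown; potency is read from the fitted curve at half-maximal effect; nearly all actives have a fitted effect of over 60% in size; about a fifth of the inactives were tested at one dose only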
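Cells in DMEM/10% FBS with G418 were pretreated with compounds in DMSO plus […] (300 uM stock) for 30 min at 37C. cAMP was measured by HTRF (cAMP-d2 plus anti-cAMP antibody-K) after 30 min at room temperature.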
D2 agonist: agonists of human D2 dopamine receptor (beta-arrestin); DiscoveRx PathHunter D2 beta-arrestin, luminescence, 90 min; 100% = 57 uM dopamine signal; 0.084% of 360,000 active; activation, % (test concentration not listed); P14416; AID 624465; in the data active = activation above about 40%; inconclusive = about 15% to 40%; inactive = below about 15%; also: compound concentration not given in the record; the text of the record calls up to 30% inactive
Target sequence (P14416 whole entry, looked up): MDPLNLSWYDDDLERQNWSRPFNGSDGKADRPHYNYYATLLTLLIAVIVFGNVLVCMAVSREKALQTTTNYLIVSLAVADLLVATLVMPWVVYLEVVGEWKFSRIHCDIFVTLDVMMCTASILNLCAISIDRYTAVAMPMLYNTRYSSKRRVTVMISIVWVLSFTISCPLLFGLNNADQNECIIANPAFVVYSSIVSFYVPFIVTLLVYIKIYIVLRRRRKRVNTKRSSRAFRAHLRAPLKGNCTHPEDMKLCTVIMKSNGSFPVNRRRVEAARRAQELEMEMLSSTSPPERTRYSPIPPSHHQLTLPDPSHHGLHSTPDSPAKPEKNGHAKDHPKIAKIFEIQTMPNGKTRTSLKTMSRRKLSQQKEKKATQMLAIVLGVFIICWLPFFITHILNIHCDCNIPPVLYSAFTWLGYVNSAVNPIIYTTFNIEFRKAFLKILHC
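DiscoveRx PathHunter D2 beta-arrestin cells (2,100/well) attached overnight, then compound-stimulated 90 min at 37 C in HBSS/10 mM HEPES/0.1% Tween-20 buffer; beta-galactosidase complementation read by luminescence after 1 h at ambient temperature. Dopamine 57 uM final (EC100) as control.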
Menin MLL FP FL: menin-MLL binding inhibition, fluorescein peptide | 290,000 tested, under 10 active | FP activity change, % at 61.4 µM | Fluorescence polarization, fluorescein-MLL peptide displacement from menin; inconclusive = falling polarisation curve, or a change in total fluorescence; inactive = total fluorescence flat and polarisation flat or rising; no compound was filed as active; the % refers to the polarisation; negative = inhibition;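 also: % of control where 0% means no effect; inhibitors lower the polarisation; unlabelled MLL peptide was the positive control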
Sfp PPTase inh: Sfp phosphopantetheinyl transferase inhibition; Potency, µM, without a hit: max response, negative = inhibition, actives largely listed as inhibitors; AID 1490; 3.5% of 310,000 active; Biochemical Sfp PPTase activity, qHTS; Q9F4F7; active = well fitted inhibition curve with a large enough effect; inconclusive = small, poorly fitted or top-dose-only effect, or another doubt; inactive = no such curve, though single readings can be large or run the other way;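 also: the enzyme is Sfp with the accession as filed and its product quenches rhodamine fluorescence; potency is read from the fitted curve at half-maximal effect; 0% = enzyme reaction without inhibitor and -100% = no enzyme wells; top concentration of the series not given in the record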
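With Hepes-Na pH 7.6 buffer containing 10 mM MgCl2, Sfp (15 nM) modified BHQ-2-YbbR (12.5 uM) using rhodamine-CoA (5 uM). Two reads 30 minutes apart at 525/598 nm yielded each well's rate.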
gsp antag: gsp mutant antagonism. gsp-mutant cells, cAMP HTRF, 30 min; control for the full effect not named in the record. Potency, µM (top dose mostly 76.9 µM), without a hit: top-dose activity change, negative = inhibition, most hits filed as inhibitors. 0.4% of 340,000 active. AID 624288; active = falling curve of any shape with a large fitted effect; inconclusive = falling curve, mostly with a smaller effect; inactive = flat or rising curve; cell line not stated here;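 also: intracellular cAMP measured with PDE inhibitor Ro 20-1724 present during compound exposure; potency is read from the fitted curve at half-maximal effect; % is scaled to controls: 0 for no effect and ±100 for the full control effect; nearly all actives have a fitted effect of over 65% in size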
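G418-selected cells were plated in DMEM/10% FBS for 16-24 h at 37C, then treated with compounds plus the PDE inhibitor […] (300 uM solution added) for 30 min at 37C. Intracellular cAMP was measured by HTRF after 30 min lysis at room temperature.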
PINK1 expr mod: changes PINK1 expression; PINK1 immunofluorescence, high-content cytometry, 24 h; Potency, µM (highest dose often 76.6 µM), for the others: at the top dose activation (PINK1 increase), actives largely listed as activators; 0.2% of 410,000 active; active = well fitted activation curve with a large enough effect; inconclusive = small, poorly fitted or top-dose-only effect; inactive = flat fitted curve, though single readings scatter; cell line not stated here;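 also: potency is read from the fitted curve at half-maximal effect; % of control where 0% means no effect; nearly all actives have a fitted effect of over 65% in size; a mitochondrial uncoupler was the plate control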
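Compound titrations (5 concentrations, 24 h) on a stable cell line; DMSO and CCCP controls. Endpoint: fixed-cell PINK1 immunofluorescence with mitochondrial, cell and nuclear markers, scanned by microplate cytometer.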
ClpP mod: qHTS Assay for Activators of ClpP | Potency, µM (series often up to 57.5 µM), inactives show top-dose activity change, negative = active | AID 651965, 2013 | ATP-dependent Clp protease proteolytic subunit (Bacillus subtilis (strain 168)), P80244 | purified B. subtilis ClpP, FRET peptide cleavage, 20 min | 1.9% of 340,000 active; active = well fitted falling curve with a large enough effect; inconclusive = small, poorly fitted or top-dose-only effect; inactive = no such curve, though single readings can be large or run the other way; also: potency is read from the fitted curve at half-maximal effect; the source files actives as falling curves though it sought activators and does not explain the sign; nearly all actives have a fitted effect of over 65% in size; many hits overshoot -100%
Target sequence (P80244 whole entry, looked up): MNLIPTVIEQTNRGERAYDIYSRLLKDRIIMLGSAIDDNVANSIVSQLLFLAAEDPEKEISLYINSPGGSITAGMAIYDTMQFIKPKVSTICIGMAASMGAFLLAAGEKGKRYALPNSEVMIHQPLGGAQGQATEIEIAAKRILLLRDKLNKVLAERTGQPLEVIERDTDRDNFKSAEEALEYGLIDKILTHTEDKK
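FRET quenching reversal measured ClpP activation: 10 microg/mL B. subtilis ClpP at pH 8 with the FRET-FV decapeptide, read at 430 nm after 320 nm excitation. The 20-min minus 0-min signal was scaled between DMSO/no-enzyme wells and ADEP (5.8 microM final).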
The depositor's hits bear a star; ? = inconclusive; . = no result given; & = joins results of further samples; [ ] = remark or other dose.

SMILES | gsp agonist | D2 agonist | Menin MLL FP FL | Sfp PPTase inh | gsp antag | PINK1 expr mod | ClpP mod
NC(=O)NC(=O)CC1S/C(=N/N=C/c2ccccc2)NC1=O (stereo unspecified) | 0% | -1.8 | -0.1 | 23% | 8% | 0.7% | .
COc1ccc(OC)c(NC(=O)CSc2ncccn2)c1 | 25% | 1.6 | 3.0 | -10% | 7% | 0.1% | -2.9%
O=C(Nc1sc2c(c1C(=O)NCC1CCCO1)CCCC2)c1cccs1 (stereo unspecified) | -3% | -1.6 | 1.0 | -28% | -13% | -2.2%[38.3 µM] | -3.1%
Cc1ccc2oc3c(c(=O)c2c1)C(c1cccs1)N(CCCN(C)C)C3=O (stereo unspecified) | 1% | 3.9 | ? | ? | 4% | -0.3% | -23%
CCN(CC)CCN1C(=O)C(=O)/C(=C(/O)c2ccncc2)C1c1ccccc1 (stereo unspecified) | 25% | -2.7 | -1.4 | -2% | 2% | -0.8% | -4.2%
CN(Cc1ccccc1)C(=O)c1ccc(NC(=O)Cc2cccc(NC(=O)C3CCN(C(=O)C4CCCC4)CC3)c2)cc1 | ? | -2.8 | . | . | 7% | -0.6% | 0.3%
O=C(Nc1ccccc1Cl)N(Cc1nc2ccccc2c(=O)[nH]1)Cc1cccs1 | ? | -0.4 | 3.0 | 13% | -5% | 23% | -15%
CCOc1ccc(NC(=O)CN(C)C(=O)c2cc(C)oc2C)cc1OCC | -4% | -5.7 | . | . | 3% | 4.5% | 1.6%
Cc1nnc(NC(=O)c2csc3c2CCC(C)C3)s1 (stereo unspecified) | -2% | -0.3 | -5.4 | -5% | 9% | 0.7% | 0.2%
CN(Cc1ccccc1Cl)C(=O)c1cc2ccccc2o1 | -19% | -4.9 | 4.5 | 0% | -23% | 0.0% | .
CCOc1ccc(-n2c(SCC(N)=O)nnc2-c2ccco2)cc1 | -4% | 1.3 | -6.0 | 27% | -8% | 0.9% | .
C[C@H](CO)N1C[C@H](C)[C@@H](CN(C)Cc2ccc(O)cc2)OCc2cnnn2CCCC1=O | -27% | -0.9 | . | . | . | 0.4% | -1.5%
CC1SC(c2ccccc2Cl)NC1=O (stereo unspecified) | -5% | 0.3 | 3.2 | 5% | 0% | -0.8% | -2.6%
COCCOC(=O)C1=C(C)Nc2ncnn2C1c1ccc(F)cc1 (stereo unspecified) | ? | -3.6 | 3.8 | 10% | 10% | 1.5% | -0.3%
Cc1ccccc1NC1=C(Cl)C(=O)OC1OC(=O)c1ccco1 (stereo unspecified) | -15% | 1.0 | -1.7 | 6% | 17% | 2.0%[38.3 µM] | -0.3%
Clc1ccccc1CSc1nncn1NC/C=C/c1ccccc1 | 7% | 1.0 | -0.3 | -3% | -14% | 0.1% | -1.6%
COC(=O)CC(NC(=S)NC(=O)c1ccccc1)c1ccc(Br)cc1 (stereo unspecified) | 6% | -1.7 | ? | 3% | 0% | 1.7% | 0.4%
O=C(N/N=C1/CC2C=CCC12)c1cccs1 (stereo unspecified) | 11% | -2.8 | -1.0 | 17% | 4% | 1.9% | -0.4%
CCOC(=O)C1=C(CSCc2ccccc2)NC(=O)NC1c1cc(C)ccc1C (stereo unspecified) | -24% | 4.9 | -0.7 | 4% | -8% | -2.9%[38.3 µM] | -0.3%
CCOc1ccc(S(=O)(=O)Nc2cc(S(=O)(=O)N3CCOCC3)ccc2OC)cc1 | -5% | 0.7 | . | . | -7% | 7.8% | 2.6%
Cc1ccc(NC(=S)N=Nc2c(O)n(C)c3ccc(S(=O)(=O)N4CCOCC4)cc23)cc1C | -9% | 0.5 | -0.6 | 5% | 7% | 4.2% | 5.5%
[N-]=[N+]=N[C@@H](CCN1CC[C@H](O)CCC1=O)c1ccccc1 | . | 0.7 | -0.3 | 15% | 14% | -0.5% | 2.7%&-0.3%
COc1cc(OC)cc(OC(=O)C2CCN(C(=O)c3ccc(Cl)cc3)CC2)c1 | -8% | -8.8 | . | . | -6% | 4.2% | 1.2%
CCN=C1SC(CC(=O)Nc2sc3c(c2C#N)CCCC3)C(=O)N1CC (stereo unspecified) | ? | -0.6 | -0.1 | 1% | -15% | 8.5% | 3.0%
NC(=O)CSc1nnc(-c2ccc(S(=O)(=O)N3CCOCC3)cc2)n1CC1CCCO1 (stereo unspecified) | -52%[inhibitor] | 0.6 | 0.7 | 4% | 10% | 3.0%[38.3 µM] | -19%
O=C(Nc1ccc(N2CCOCC2)cc1)c1csc([C@@H]2O[C@H](CO)[C@H](O)[C@H](O)[C@H]2O)n1 | . | -8.1 | . | . | . | 0.0% | -5.6%
Cc1ccccc1C(=O)N1CCC(C(=O)Nc2ccc(S(=O)(=O)N3CCCCC3)cc2)CC1 | 6%[15.4 µM] | -2.3 | . | 5% | -3% | 1.8% | -2.5%
CCCOP(=O)(c1ccc(N(C)C)cc1)C(O)c1cccnc1 (stereo unspecified) | -4% | 0.3 | 3.5 | 3% | 4% | -5.1%[38.3 µM] | -0.3%
Cc1ccc(NC(=O)COc2coc(CN3CCN(Cc4ccccc4)CC3)cc2=O)cc1 | -23% | 3.7 | . | . | 0% | -2.6% | 28µM*
Cc1ccc(CNC(=O)CCC(=O)Nc2nnc(C(C)C)s2)cc1 | -11% | 4.9 | 0.7 | 5% | -13% | 0.6% | 0.9%
Cc1onc(-c2c(F)cccc2Cl)c1C(=O)N1CCN(c2ncc(Br)cn2)CC1 | -16%[15.4 µM] | -6.8 | 6.1 | -9% | -18% | 5.7% | -3.0%
O=C(Cc1ccc(Br)cc1)Nc1cccc(S(=O)(=O)N2CCOCC2)c1 | -1% | -1.2 | . | . | 20% | 1.8% | -0.4%
COc1cccc(-c2cc(C(=O)N3CCN(C(=O)c4ccco4)CC3)on2)c1 | ? | 2.9 | . | 11% | 5% | 1.5% | 0.4%
COc1ccc(/C=C2\Sc3ccc(C(=O)NCCN4CCCCCC4)cc3N(C)C2=O)cc1 | 6% | ? | 0.0 | ? | 7% | 3.8% | 1.4%
COc1ccc(NC(=O)Nc2ccc(N(C)C)cc2)cc1 | -22% | 2.8 | 6.5 | -5% | ? | 0.3% | 0.0%
O=C1CN(C(=O)c2ccc(Br)o2)C(c2ccccc2)c2cc(F)ccc2N1 (stereo unspecified) | 23% | 0.9 | -0.1 | -3% | -4% | 0.4% | -1.3%
COc1ccc(Cl)cc1C(=O)NNC(=O)c1nc2nc(C)cc(C)n2n1 | 15% | 2.3 | 4.5 | 21% | -1% | 3.4% | .
CCOc1ccccc1CN1CCCC(C(=O)c2ccc(OC)c(OC)c2)C1 (stereo unspecified) | 4% | -4.3 | -4.7 | 11% | 9% | 3.8% | -19%
O=C(O)C1CCC(=O)N1C1CCCC1 (stereo unspecified) | -28% | 2.1 | -1.4 | 12% | -6% | -2.5% | ?
O=C(CC1C(=O)NCCN1CC1CCCCC1)NCc1ccc(Cl)cc1 (stereo unspecified) | -1% | -1.9 | 2.6 | 4% | -6% | 2.2% | -8.1%
CC(C)CC(=O)N1CCN(S(=O)(=O)c2ccccc2)CC1 | -4% | -5.8 | 2.9 | -1% | -6% | . | 0.7%
CSc1nc(N)c(C#N)c(-c2ccccc2Cl)c1C#N | 9% | -0.1 | -0.6 | -6% | 1% | 3.2% | ?
Cn1c(CCc2ccccc2)nnc1SCC(=O)N1CCCC1 | -21% | -2.3 | 3.4 | 13% | 11% | 0.2% | 0.5%
COc1ccc(-c2ncncc2-c2ccc(Cl)cc2)c(O)c1 | 21% | 0.9 | 1.4 | -2% | -12% | -1.0% | .
Cc1ccc(NC(=O)Cc2nnc(SCC(=O)Nc3ccccc3)n2C)cc1 | -5%[15.4 µM] | -5.2 | 0.2 | -7% | 2% | -1.1% | -1.0%
COc1cc(SC)ccc1C(=O)OCC(=O)N1CCCC1 | 24%[15.4 µM] | -3.2 | 0.6 | 17% | 4% | 1.1% | .
CN1CCN(C(=O)CN(C)S(=O)(=O)c2ccc(F)cc2)CC1 | 8%[15.4 µM] | -4.0 | -2.3 | 6% | 8% | 0.1% | .
N#C/C(=C/c1ccc(OCc2ccc(C(=O)O)cc2)c(Br)c1)c1cccc(F)c1 | -2% | 3.9 | 8.6 | -10% | -16% | -1.9% | .
Cc1nnc(NC(=O)CCC(=O)N2CCC(C)CC2)s1 | 22% | -1.7 | 6.9 | 2% | 12% | 9.4%[38.3 µM] | 0.6%
Cc1occc1C(=O)NNC(=S)NCc1ccc(Cl)cc1 | -3% | -3.6 | -0.5 | 15% | 6% | -0.2% | 2.4%
(cont.)
SMILES | gsp agonist | D2 agonist | Menin MLL FP FL | Sfp PPTase inh | gsp antag | PINK1 expr mod | ClpP mod
CCC(=O)Nc1cccc(C(=O)/C=C/c2cccs2)c1 | -53%[inhibitor] | -3.7 | 2.4 | 1% | -18% | 3.5% | -1.8%
COC(=O)c1ccccc1S(=O)(=O)N1Cc2cc([N+](=O)[O-])ccc2Oc2ccccc21 | 4% | -1.8 | 0.5 | 2% | ? | -0.8% | 2.0%
Cc1ccc(OCCC(=O)NNC(=O)c2nn(C)c(=O)c3ccccc23)cc1 | 6% | 0.0 | . | . | 0% | 1.0% | -1.6%
C[C@H]1CN([C@@H](C)CO)C(=O)CCCn2cc(nn2)CO[C@@H]1CN(C)C(=O)Oc1ccccc1 | . | -5.6 | . | . | . | -0.4% | -1.9%
CCOC(=O)Cc1c(C)nc2c(-c3ccc(Cl)cc3)c[nH]n2c1=O | -4% | -2.4 | -0.8 | 9% | 0% | 1.3% | 3.2µM*

Among those listed so far, three have a cyano group.
SMILES | gsp agonist | D2 agonist | Menin MLL FP FL | Sfp PPTase inh | gsp antag | PINK1 expr mod | ClpP mod
CCN=C1SC(CC(=O)Nc2sc3c(c2C#N)CCCC3)C(=O)N1CC (stereo unspecified) | ? | -0.6 | -0.1 | 1% | -15% | 8.5% | 3.0%
CSc1nc(N)c(C#N)c(-c2ccccc2Cl)c1C#N | 9% | -0.1 | -0.6 | -6% | 1% | 3.2% | ?
N#C/C(=C/c1ccc(OCc2ccc(C(=O)O)cc2)c(Br)c1)c1cccc(F)c1 | -2% | 3.9 | 8.6 | -10% | -16% | -1.9% | .
